# Assay outcomes as filed in PubChem BioAssay.
# Mtb H37Rv – Confirmatory growth inhibition assay against Mycobacterium tuberculosis H37Rv, potency (AID 1949); inhibition, % at 10 µg/mL; hits with a dose series show IC50 in µg/mL; most inactive calls were filed without a number and no value below 0 was filed; 100,000 compounds, 1.6% hits;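 active = confirmed in a dose series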;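 also: bacteria grown 7 days with compound before Alamar blue readout; 0% = untreated bacteria and 100% = reference antibiotic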
# Numbers without * were called inactive; i = inactive. A portion of the library, so the mix of outcomes need not match the whole.
SMILES,Mtb H37Rv
C=CCN1C(=O)CS/C1=C(\C#N)S(=O)(=O)c1ccc(C)cc1,i
COc1cc(NC(=S)N2CCOCC2)cc(OC)c1,i
CSc1ccc(S(=O)(=O)N2CCN(C/C=C/c3ccccc3)CC2)cc1,i
O=C(Nc1sc2c(c1C(=O)N1CCCCC1)CCC2)c1ccccc1,i
Cc1ccccc1OCCCC(=O)Nc1ccc(N2CCOCC2)cc1,i
COc1cccc(CNC(=S)Nc2ccc(F)cc2)c1,i
Cc1ccc(Oc2c(C(F)(F)F)oc3cc(O)ccc3c2=O)cc1,1.3%
N#Cc1cc2c(nc1SC1CCc3ccccc3C1=O)CCCC2 (stereo not drawn),i
Cc1ccc(C(=O)NC(=S)Nc2cccc3nsnc23)cc1,i
O=C(CCC1CCCC1)Nc1ccc(F)cc1F,i
Cc1cc(C)n(-c2ccc3cccc(N)c3n2)n1,4.9%
COC(=O)C(C)n1cnc2sc(C)c(C)c2c1=O (stereo not drawn),i
Cc1c(C(=O)NCc2ccccn2)oc2c1C(=O)CC(C)(C)C2,i
Cc1cc(C(=O)OCC(=O)c2ccc(Cl)cc2)c2ccccc2n1,3.4%
O=C(CCN1C(=O)c2ccccc2C1=O)N1CCC(c2ccccc2)C1 (stereo not drawn),i
Fc1ccc(Cn2c(Cc3ccccc3)nc3ccccc32)cc1,i
CCc1c(C)sc(NC(=O)c2cccs2)c1C#N,i
Fc1cccc(CN2CCN(C3CCCCCC3)CC2)c1,i
O=C(CSc1nnnn1-c1ccccc1)Nc1nc2ccc(Br)cc2s1,i
COCCNC(=O)c1cc2c(n(-c3ccc(Cl)cc3)c1=O)CC(C)(C)CC2=O,0.8%
CCc1ccc(OCC(=O)NCc2cccc3ccccc23)cc1,i
O=C(Cc1ccc(Br)cc1)NCCN1CCOCC1,i
Cc1ccc(NC(=O)c2ccccc2)cc1Cl,i
COc1ccc(CCNC(=O)C2C3C=CC(C3)C2C(=O)O)cc1OC (stereo not drawn),i
Cc1cccc(C)c1NC(=O)CC(=O)c1ccccc1,0.9%
COc1ccccc1NC(=S)NC(=O)C(C)(C)C,i
COc1ccc(OC)c(NC(=O)CSc2nnc(-c3ccc(F)cc3)n2C)c1,0.0%
CCc1cc(=O)oc2cc(C)cc(OCc3c(F)cccc3F)c12,i
COc1ccc(Cc2nnc(SCC(=O)Nc3nc(-c4ccccc4)c(C)s3)o2)cc1,9.7%
N#Cc1nc(-c2ccc(F)cc2)oc1NCc1ccccc1Cl,i
COc1cc(S(=O)(=O)N2CCN(c3ccccc3)CC2)c(C)cc1C,1.2%
COc1ccc(Cl)cc1N(CC(=O)N1CCN(c2cccc(Cl)c2)CC1)S(C)(=O)=O,1.5%
Cc1ccc(NC(=O)CNC(=O)C2CCCCC2)cc1,5.1%
O=C(CSc1ncnc2scc(-c3ccccc3)c12)Nc1ccc(F)cc1,i
COc1cc(NC(=O)c2cccc(Br)c2)nc(OC)n1,i
COc1ccccc1Nc1ccc(C(F)(F)F)cc1[N+](=O)[O-],i
c1ccc(COc2ccc(CNCc3cccnc3)cc2)cc1,i
O=C(Oc1ccccc1)c1ccc(Br)cc1,i
O=[N+]([O-])c1cccc(-c2nc(NCc3cccnc3)c3ccccc3n2)c1,i
COc1cccc(C2C(C#N)=C(N)Oc3n[nH]c(-c4ccc(CC(C)C)cc4)c32)c1OC (stereo not drawn),i

# Sorted by molar mass (rising): 6 of the compounds above
SMILES,Mtb H37Rv
Cc1ccc(NC(=O)c2ccccc2)cc1Cl,i
Cc1ccc(NC(=O)CNC(=O)C2CCCCC2)cc1,5.1%
CCc1cc(=O)oc2cc(C)cc(OCc3c(F)cccc3F)c12,i
COc1cc(NC(=O)c2cccc(Br)c2)nc(OC)n1,i
O=C(CSc1ncnc2scc(-c3ccccc3)c12)Nc1ccc(F)cc1,i
COc1cccc(C2C(C#N)=C(N)Oc3n[nH]c(-c4ccc(CC(C)C)cc4)c32)c1OC (stereo not drawn),i

# (listing goes on)
SMILES,Mtb H37Rv
COc1ccc(S(=O)(=O)N(CC(N)=O)c2ccc(C)cc2)cc1Br,i
CC1(C)CC(=O)c2sc(NC(=O)CN3CCN(c4ccccc4)CC3)nc2C1,4.2%
O=C(Nc1ccc(F)cc1F)c1cc(-c2ccc(Cl)cc2)nc2ccccc12,i
CN(C)S(=O)(=O)c1ccc(C(=O)Nc2ccc(Cl)cc2)cc1,i
Cc1ccc(C(=O)Nc2ccc3nc(SCC(=O)N4CCCCC4)sc3c2)cc1,i
COc1cc(C(=O)Nc2ccc3c(c2)ncn3-c2ccccc2C)cc(OC)c1OC,i
Cc1cccc(C)c1NC(=O)C(=O)NCc1ccncc1,i
CCCCOc1ccc(C(=O)NC(=S)Nc2cc(C)ccn2)cc1,i
COc1ccc(CCNC(=O)Cc2ccc(Cl)cc2)cc1,1.1%
O=C(COc1ccccc1Cl)Nc1cccc(Br)c1,i
O=C(Nc1cccc(Br)c1)c1cccc(OCc2ccccc2)c1,2.7%
O=C(O)c1ccccc1-c1ccccc1C(=O)NCc1ccco1,3.0%
Cc1ccccc1NC(=O)CN(c1ccc(Br)cc1)S(C)(=O)=O,i
CC(=O)N/C(=N/c1nc(C)cc(C)n1)Nc1ccc(C)cc1C,i
COc1ccc([N+](=O)[O-])cc1NC(=O)c1cc(C)cc(C)c1,3.0%
CCC(C)NC(=O)c1ccccc1NC(=O)c1ccc(OC)cc1 (stereo not drawn),i
CCOc1ccc(C(=O)Nc2ccc(OC)c(Cl)c2)cc1OCC,0.7%
CC(=O)c1cccc(NC(=O)Nc2cc(C)cc(C)n2)c1,i
O=C(Nc1ccc(OC(F)(F)F)cc1)c1ccc2nccnc2c1,19.5%
NC(=O)c1ccccc1NC(=S)NC(=O)c1cccc(Br)c1,i

# Structural class, the entries above containing a CF3 group (3)
SMILES,Mtb H37Rv
Cc1ccc(Oc2c(C(F)(F)F)oc3cc(O)ccc3c2=O)cc1,1.3%
COc1ccccc1Nc1ccc(C(F)(F)F)cc1[N+](=O)[O-],i
O=C(Nc1ccc(OC(F)(F)F)cc1)c1ccc2nccnc2c1,19.5%

# New compounds follow
SMILES,Mtb H37Rv
CC1CC(CCC(=O)NC(=S)Nc2ccccc2Cl)C(=O)O1 (stereo not drawn),1.4%
CCCN1C(=O)c2ccc(C(=O)Nc3cccc(O)c3)cc2C1=O,i
O=C(CCc1ccccc1)N1N=C(c2ccc(Cl)cc2)CC1(O)C(F)(F)F (stereo not drawn),21.2%
COc1ccccc1C(CC(=O)Nc1nccs1)c1ccc(OC(C)C)cc1 (stereo not drawn),i
CC(C)(c1ccccc1)c1ccc(OCC(=O)N2CCOCC2)cc1,i
O=c1cc(-c2ccccc2)[nH]n1-c1cccc(C(F)(F)F)c1,i
COc1ccc(N(CC(=O)N2CCCC2)S(C)(=O)=O)cc1OC,i
CC(Oc1cccc(Cl)c1)C(=O)Nc1ccc(C(C)C)cc1 (stereo not drawn),27.4%
Cc1cc(C)nc(SCC(=O)c2cc3ccccc3oc2=O)n1,i
CCOC(=O)C1=C(c2ccc(C)cc2)C(=O)c2ccccc2C1=O,3.03µg/mL*
Cc1cc(S(=O)(=O)N2CCOCC2)ccc1F,i
CCc1ccccc1N(CC(=O)NC1CCCCCC1)S(=O)(=O)c1ccc(C)cc1,i
Cc1cccc(OCC(=O)NS(=O)(=O)c2ccc(Br)cc2)c1,i
O=C(CN1C(=O)C2C3C=CC(C4CC34)C2C1=O)Oc1ccc(F)cc1 (stereo not drawn),i
S=c1[nH]nc(-c2ccc3ccccc3n2)n1-c1ccc(Cl)cc1,5.1%
O=C1N=c2ccc(Br)cc2=C1c1sc(=S)n(-c2ccc(Cl)cc2)c1O,i
CCOc1ccc(N(CC(=O)Nc2ccc(F)cc2)S(=O)(=O)c2ccc(OC)c(OC)c2)cc1,i
O=C(NCc1ccco1)C1CC1(c1ccccc1)c1ccccc1 (stereo not drawn),i
CCSc1nc2cc(OC)c(OC)cc2c(=O)n1CCc1ccccc1,i
Cc1ccc(C(=O)N2CC(C)OC(C)C2)c(Cl)c1 (stereo not drawn),i
Cc1noc(C)c1CSc1nc2sc(C)c(C)c2c(=O)n1-c1ccccc1,3.2%
CCOc1cc(S(=O)(=O)N2CCCC2)ccc1F,i
c1ccc(Cn2ncc3c2ncn2nc(CSc4nc5ccccc5s4)nc32)cc1,i
COc1cc(C(=O)Oc2ccc(Cl)cc2C)cc(OC)c1OC,i
CN(c1ccccc1C(=O)Nc1ccc(C(F)(F)F)cc1)S(C)(=O)=O,i
Cc1nc(NC(=O)c2ccccc2[N+](=O)[O-])ccc1Br,4.4%
O=C(O)c1ccc(CNC(=S)Nc2ccccc2C(F)(F)F)cc1,i
O=C(Nc1nonc1-c1nc2ccccc2[nH]1)c1ccccc1Cl,i
COc1ccc(CNC(=O)Cn2cnc3c(=O)n(C)c(=O)n(C)c32)cc1,i
O=C(Oc1cccc(Oc2ccccc2)c1)N1CCOCC1,2.6%
COc1cc(CNc2ncn[nH]2)ccc1OCc1cccc(C)c1,i
CCOC(=O)c1ccc2nc(C)cc(Nc3ccc(Cl)cc3)c2c1,0.3%
COc1cccc(C(=O)O/N=C(\N)c2ccc([N+](=O)[O-])cc2)c1,i
O=c1[nH]cnc2c1C(c1ccccc1)c1c(nc[nH]c1=O)O2,i
COc1cc2ccccc2cc1C(=O)NC(=S)Nc1ccc(N2CCCC2)c(Cl)c1,i
CCCCC(=O)Nc1ccc(NC(=S)NC(=O)c2ccc(-c3ccccc3)cc2)cc1OC,i
O=C(Nc1cccc(-c2cn3ccsc3n2)c1)c1cccc(Cl)c1,11.2%
CC(=O)Nc1ccc(NC(=O)c2ccccc2)c(C)c1,2.3%
Cc1cc(Br)cc(C)c1NC(=O)COc1ccccc1-c1ccccc1,i
COc1ccc(S(=O)(=O)N(Cc2ccccc2)c2ccccc2C(=O)NCCC(C)C)cc1,6.5%
CCCCOc1cccc(C(=O)NC(=S)Nc2ccc(Cl)c(C(=O)O)c2)c1,14.4%
CCOc1ccc(-c2csc(C3COc4ccccc4O3)n2)cc1 (stereo not drawn),3.5%
S=C(NC1CCCC1)NN1CCOCC1,i
Cc1cccc(N2CC(O)=C(c3nc4ccccc4c(=O)[nH]3)C2=N)c1C,i
CN1CCN(C(=O)c2ccc3nc(-c4ccccc4)c(-c4ccccc4)nc3c2)CC1,i
CCc1ccc(N(CC(=O)NCCSCc2ccc(C)cc2)S(C)(=O)=O)cc1,i
CCC(C(=O)N1CCC2(CC1)OCCO2)c1ccccc1 (stereo not drawn),i
CCOC(=O)c1ccc2[nH]c(C)c(Cc3ccc(OCC)cc3)c(=O)c2c1,0.5%
COCCN1C(=O)c2oc3ccc(F)cc3c(=O)c2C1c1cccc(Oc2ccccc2)c1 (stereo not drawn),i
C=CCSc1nc2sc3c(c2c(=O)n1-c1ccccc1C)CC(C(C)C)OC3 (stereo not drawn),i
COc1ccc(NC(=S)N2CCN(CCN3C(=O)c4cccc5cccc(c45)C3=O)CC2)cc1,i
COc1ccc(OCC(=O)Nc2ccc(S(=O)(=O)Nc3cc(C)cc(C)c3)cc2)cc1,i
COc1ccccc1NC(=O)c1ccc(CSc2nnnn2-c2ccccc2)cc1,i
O=C(CCN1CCOCC1)N1N=C(c2ccccc2)CC1c1cccc([N+](=O)[O-])c1 (stereo not drawn),0.1%
Cc1ccc(S(=O)(=O)N(C)c2ccccc2C(=O)N2CCCC2)cc1,i
Cc1ccc(-c2c(C#N)c(N)nc3c2CCCCC3)o1,2.5%
CCN(CC)C(=O)N(C)Cc1ccccc1,i
Cc1ccc(C)c(OCC(=O)O/N=C(\N)c2ccncc2)c1,4.5%
Nc1ccc(OC(F)(F)F)cc1C(=O)c1ccccc1,i
CC(C)(C)C(=O)Nc1ccc(N2CCCC2)c(Cl)c1,42.0%

# Fetched by structure from above, six records:
SMILES,Mtb H37Rv
Cc1ccc(-c2c(C#N)c(N)nc3c2CCCCC3)o1,2.5%
CCOc1ccc(-c2csc(C3COc4ccccc4O3)n2)cc1 (stereo not drawn),3.5%
CCC(C(=O)N1CCC2(CC1)OCCO2)c1ccccc1 (stereo not drawn),i
COCCN1C(=O)c2oc3ccc(F)cc3c(=O)c2C1c1cccc(Oc2ccccc2)c1 (stereo not drawn),i
C=CCSc1nc2sc3c(c2c(=O)n1-c1ccccc1C)CC(C(C)C)OC3 (stereo not drawn),i
COc1ccccc1NC(=O)c1ccc(CSc2nnnn2-c2ccccc2)cc1,i

# Additional entries follow:
SMILES,Mtb H37Rv
Cn1c(=O)c2c(-c3ccccc3)n(Cc3ccc(Cl)cc3)cc2n(C)c1=O,i
O=C(CSc1nnc(-c2ccco2)c(-c2ccco2)n1)Nc1cccc(C(F)(F)F)c1,i
CC1=C(C(=O)Nc2ccc(C)cc2C)C(c2ccc(O)cc2)NC(=O)N1 (stereo not drawn),0.7%
CCCCNS(=O)(=O)c1ccc(NS(=O)(=O)c2cc(Cl)ccc2Cl)cc1,i
CCOc1cc(/C=C(/C#N)c2ccc(C#N)cc2)cc(Cl)c1O,i
O=C(c1ccco1)N1CCN(C(=O)N2c3ccccc3Sc3ccccc32)CC1,i
O=C(OCC(=O)c1cccs1)c1ccc(N2C(=O)C3C4C=CC(C5CC45)C3C2=O)cc1 (stereo not drawn),i
CCn1c(/C=C/c2cccnc2)nc2ccc(I)cc2c1=O,i
CC(=O)c1ccc(N/C(=N/S(=O)(=O)c2ccccc2)c2ccc(F)cc2)cc1,i
COCc1cc(=O)[nH]c(/N=C(\N)Nc2ccc(F)cc2)n1,i
O=C(c1ccc(Cl)cc1)N1CCN(c2ccc([N+](=O)[O-])c(N3CCc4ccccc4C3)c2)CC1,i
COc1cccc(C2CC(c3ccccc3OC)n3nc(N)nc3N2)c1 (stereo not drawn),i
O=C(NCc1ccccc1)c1cc(-n2cnnc2)ccc1Cl,i
Cn1c(CN2CCOCC2)nnc1SCC(=O)N1CCc2ccccc21,i
CCC(=O)NC(=S)Nc1cccc2c(NC(=S)NC(=O)CC)cccc12,i
CCn1c(Cc2c(C)[nH]c3ccccc23)nnc1SCC(N)=O,2.4%
CCOc1ccccc1C(=O)Nc1nn[nH]n1,i
COc1ccc(Cl)cc1NC(=O)C1CCN(C(=O)c2ccccc2C)CC1,1.2%
Cc1ccc(OCC(=O)Nc2ccc(Br)c(C)n2)c(C)c1,i
O=C(c1ccc([N+](=O)[O-])cc1)N(Cc1cccc(Cl)c1)C1CCS(=O)(=O)C1 (stereo not drawn),i
CCSc1nc(C2CC2)cc(C(F)(F)F)c1C#N,i
